# SARS PLpro yeast: SARS-CoV PLP inhibition in yeast | Potency, µM (titrated, usually from 32.9 µM), for inactives: top-dose activity, positive = growth rescue | 330,000 compounds, 0.19% hits | S. cerevisiae expressing SARS-CoV PLpro, growth rescue; control for the full effect not named in the record; active means well fitted rising curve with a large enough effect; inconclusive means small, poorly fitted or top-dose-only effect; inactive means no such curve, though single readings can be large or run the other way; note: 0% is about no effect; nearly all actives have a fitted effect of over 55% in size; growth read by luminescence after 48 h
# Cruzain Triton: cruzain (T. cruzi) inhibition with detergent; P25779; purified cruzain, Z-FR-AMC fluorescence, 0.01% Triton; Potency, µM, inactives show max response, negative = inhibition, hits mostly inhibitors; 200,000 compounds, 0.43% hits; AID 1478;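 note: plate controls were neutral wells for no effect and buffer without enzyme for full effect; nearly all actives have a fitted effect of over 40% in size; top concentration of the series not given in the record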
# Target sequence (P25779 123-467 limits assumed): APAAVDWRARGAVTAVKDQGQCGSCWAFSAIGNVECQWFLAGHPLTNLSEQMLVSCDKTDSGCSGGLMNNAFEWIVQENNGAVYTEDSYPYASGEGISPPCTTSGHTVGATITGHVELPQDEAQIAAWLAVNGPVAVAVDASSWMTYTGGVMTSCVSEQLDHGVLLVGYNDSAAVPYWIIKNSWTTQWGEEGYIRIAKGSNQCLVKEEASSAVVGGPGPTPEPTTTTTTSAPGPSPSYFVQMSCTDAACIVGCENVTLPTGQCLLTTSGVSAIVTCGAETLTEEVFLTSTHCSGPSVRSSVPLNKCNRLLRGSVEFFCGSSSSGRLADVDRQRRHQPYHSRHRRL
#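 Detergent-containing arm of a paired screen for aggregation-based inhibition: 0.01% Triton X-100 present. Cruzain at 1.5 nM cleaved 2 uM Z-FR-AMC at pH 5.5 with 5 mM DTT; AMC fluorescence gain over 60 s measured activity.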
# Marburg entry inh: blocks Marburg virus binding to or entry into cells; 300,000 compounds, 1.8% hits; Marburg virus pseudotyped entry inhibition, cell reporter; control for the full effect not named in the record; about a third of the inactives were read at about 46 µM; AID 540276; Potency, µM (titrated, usually from 37.8 µM), without a hit: at the top dose activity change, negative = inhibition, hits mostly inhibitors; active = well fitted inhibition curve with a large enough effect; inconclusive = small, poorly fitted or top-dose-only effect, or effect the other way; inactive = flat fitted curve, though single readings scatter; tested in HEK293 cells; about a fifth of its hits are not listed in these tables; note: % is set by controls: 0 for no effect and ±100 for the full control effect; luciferase read-out
# LASV entry inh: inhibitors of Lassa virus binding or cell entry | Potency, µM (top dose mostly 37.9 µM), without a hit: at the top dose activity change, negative = inhibition, actives largely listed as inhibitors | 300,000 compounds, 1.2% hits | Lassa virus pseudotype entry inhibition, cell reporter; control for the full effect not named in the record; active means well fitted inhibition curve with a large enough effect; inconclusive means small, poorly fitted or top-dose-only effect, or effect the other way; inactive means flat fitted curve, though single readings scatter; tested in HEK293 cells; note: % is set by controls: 0 for no effect and ±100 for the full control effect; nearly all actives have a fitted effect of over 50% in size; luciferase read-out
# StopGo reporter: lowers the luciferase signal of an FMDV 2A StopGo reporter | human cells with a luciferase reporter of 2A StopGo recoding; control for the full effect not named in the record | Potency, µM (top dose mostly 57.9 µM), for inactives: at the highest dose signal change, negative = less light | 410,000 compounds, 1.2% hits | AID 1159524; active = well fitted falling curve with a large enough effect; inconclusive = small, poorly fitted or top-dose-only effect; inactive = no such curve, though single readings can be large or run the other way; tested in HEK293T cells; note: % is set by controls: 0 for no effect and ±100 for the full control effect; nearly all actives have a fitted effect of over 45% in size; luciferase light after 4 h
# Cruzain inh noDet: blocks cruzain activity in detergent-free assay | P25779 | purified cruzain, Z-FR-AMC fluorescence, no detergent | Potency, µM, inactives show max response, negative = inhibition, most hits filed as inhibitors | 200,000 compounds, 2.3% hits;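 note: plate controls were enzyme without inhibitor for no effect and buffer without enzyme for full effect; nearly all actives have a fitted effect of over 40% in size; top concentration of the series not given in the record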
#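 Detergent-free condition (0.00005% Triton X-100) in acetate buffer pH 5.5 with DTT. 1.5 nM enzyme and compound were pre-mixed 15 min, then 2 uM Z-FR-AMC substrate added; reaction progress from fluorescence change between first and third reads (60 s).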
# NS1 inh: inhibitors of influenza NS1 protein function. S. cerevisiae slowed by influenza A NS1, growth recovery by OD600. Potency, µM (highest dose often 46.1 µM), for the others: at the highest dose activity, positive = more growth. 270,000 compounds, 0.4% hits. AID 2326; active means well fitted rising curve with a large enough effect; inconclusive means small, poorly fitted or top-dose-only effect; inactive means no such curve, though single readings can be large or run the other way; note: nearly all actives have a fitted effect of over 50% in size
#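 OD600 was taken as the measure of yeast growth restored by compound in an NS1-expressing S. cerevisiae strain. Cells had been washed out of glucose medium and diluted 1:100 into galactose -URA medium, pH 6.0.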
# RE007 growth inh: less growth of the S. pombe RE007 Vpr strain | AID 651644 | S. pombe RE007 Vpr strain, BacTiter-Glo ATP luminescence, 24 h; control for the full effect not named in the record | 360,000 compounds, 0.21% hits | Potency, µM (highest dose often 92.2 µM), for inactives: at the highest dose activity change, negative = less growth; active = well fitted falling curve with a large enough effect; inconclusive = small, poorly fitted or top-dose-only effect; inactive = no such curve, though single readings can be large or run the other way;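 note: % is set by controls: 0 for no effect and ±100 for the full control effect; nearly all actives have a fitted effect of over 50% in size; the assay follows cell death caused by Vpr and the record does not say whether a fall means rescue or toxicity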
#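 Fission yeast strain RE007, carrying one chromosomally integrated HIV-1 vpr copy, was seeded at OD 0.01 in PMG+AL medium with 23 nL pinned compound. After 24 h at 30 °C and 99% humidity, viability was read by BacTiter-Glo luminescence.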
# * = called active by the depositor; ? = inconclusive; · = no result given; [ ] = dose if it differs, or a comment. Unless noted, calls come from the whole dose curve; as a rule, active = well fitted curve in the direction sought with a large enough effect; inconclusive = small, poorly fitted or top-dose-only effect, or another doubt; inactive = no such curve, though single readings can be large; an effect the other way counts as inactive or inconclusive. Potency is the fitted concentration of half-maximal effect.
SMILES,SARS PLpro yeast,Cruzain Triton,Marburg entry inh,LASV entry inh,StopGo reporter,Cruzain inh noDet,NS1 inh,RE007 growth inh
COC(=O)c1ccc(COc2ccccc2/C=C(\C#N)C(=O)Nc2c(C)cc(C)cc2C)cc1,-8.7%,-4.8%,?,?,?,?,14.2%,-2.0%
O=c1[nH]c2ccccc2nc1/C=C/c1ccc(Cl)cc1,-6.5%,·,5.1%[14.2 µM],14.4%,16.8%,·,·,-8.2%
CCCSc1oc(-c2cccs2)nc1S(=O)(=O)c1ccc(C)cc1,·,-9.2%,-8.7%[46.1 µM],10.3%[46.1 µM],16.9%,-5.6%,·,·
O=C(CCCOc1ccc(Cl)cc1Cl)NCCCO,2.4%,-1.3%,15.1%,0.3%,4.3%,1.9%,10.4%,7.9%
Cc1cc(C)cc(NC(=S)N2CCN(CCO)CC2)c1,7.4%,-2.1%,2.0%,-18.8%,-8.4%,4.2%,-12.3%,-5.1%
COC(=O)c1ccccc1NC(=O)c1cc(OC)cc(OC)c1,-1.7%,-8.5%,-12.2%,-3.5%,?,-10.9%,-9.6%,?
COc1cc(Br)cc(C2C3=C(CCCC3=O)N(c3ccc(F)cc3)C3=C2C(=O)CCC3)c1O,-0.4%,·,?,?,-19.6%,·,4.0%,-18.6%
Cc1ccccc1NC(=O)c1ccc(Nc2c([N+](=O)[O-])cc([N+](=O)[O-])c3ccccc23)cc1,-2.1%,-5.8%,?,?,?,31.6µM*,24.1%,-15.7%
Cc1ccc(S(=O)(=O)N2CCN(C(=O)c3ccc(-n4cncn4)c([N+](=O)[O-])c3)CC2)cc1C,-3.0%,·,-17.8%,-11.6%,0.0%,·,·,-10.0%
COc1cccc(C(=O)c2cn(CC(=O)NCCc3ccccc3)c3nc(C)ccc3c2=O)c1,·,-2.6%,·,-6.5%[46.1 µM],-15.8%,-16.2%,·,·
CC/C(Cc1ccccc1)=N/NC(=O)CNC(=O)c1ccc(Cl)cc1Cl,-8.2%,·,-5.2%[46.1 µM],-13.2%[46.1 µM],-24.4%,·,14.8%,9.3%
Cc1ccc(Cc2nc3ccccc3nc2SCC(=O)NCCc2ccccc2)cc1,·,-1.1%,·,16.4%[46.1 µM],-3.3%,2.2%,·,·
COc1ccccc1NC(=O)Cc1ccc(-c2ccccc2)cc1,-7.8%,·,·,·,-12.1%,·,-16.6%,-18.1%
O=S(=O)(N1CCCCCC1)N1CCN(S(=O)(=O)N2CCCCC2)CC1,5.1%,4.5%,1.3%,3.6%,-10.5%,-6.6%,2.3%,1.9%
CCOc1ccc(-c2nc(N)ncc2-c2ccc(OC)cc2)c(O)c1,-20.5%,-10.2%,?,-16.4%,-13.3%,-22.2%,4.9%,-19.6%
CCOC(=O)N1CCN(C(=O)COCc2cc(-c3ccc4c(c3)OCO4)on2)CC1,-2.3%,·,4.0%[46.1 µM],?,-7.8%,·,3.5%,-22.4%
CCOC(=O)C1(CCc2ccccc2)CCN(C(=O)CCn2cnnn2)CC1,-2.2%,·,3.1%[46.1 µM],30.6%,27.9%,·,-1.1%,4.4%
COc1c(/C=N/Nc2ccc(C(=O)O)cc2)c(CCN(C)C(C)=O)cc2c1OCO2,0.6%,·,·,·,-28.8%,·,7.1%,7.2%
CCOc1ccc(CCNC(=O)c2ccc3c(c2)N(Cc2ccccc2F)C(=O)c2ccccc2S3=O)cc1OCC (stereo not given),·,2.2%,?,-16.1%[46.1 µM],-22.6%,-8.8%,·,·
Cc1cccc(N(CC(=O)N2CCN(c3ccc(F)cc3)CC2)S(C)(=O)=O)c1C,-0.3%,·,10.0%[46.1 µM],12.1%,?,·,3.4%,-10.9%
CCN1/C(=C/C=C/c2oc3ccc(-c4ccccc4)cc3[n+]2CC)Oc2ccc(-c3ccccc3)cc21,-4.4%,·,2.51µM*,4.47µM*,8.91µM*,·,-42.1%,?
NS(=O)(=O)c1ccc(CNC(=S)NC2CC2)cc1,0.2%,·,-0.2%[46.1 µM],-7.4%,-4.8%,·,3.6%,3.3%
Cc1ccc(Cn2cccc(C(=O)Nc3cc([N+](=O)[O-])ccc3C)c2=O)cc1,·,0.4%,·,15.2%[46.1 µM],-29.4%,8.3%,·,·
O=C(O)c1ccc(Cl)c(S(=O)(=O)Nc2ccc3[nH]c(=O)[nH]c3c2)c1,0.2%,·,·,·,-21.0%,·,5.8%,-12.9%
Cc1nc(NCC2CCCO2)nc2c1C(=O)CC(C)(C)C2 (stereo not given),15.4%,-2.0%,8.0%,-1.5%,2.8%,-0.9%,-2.8%,3.9%
Cc1ccc(O)c(NC(=O)CCSc2nc(-c3ccco3)cc(C(F)(F)F)n2)c1,·,-11.2%,-2.2%[46.1 µM],-18.4%[46.1 µM],-9.6%,-5.3%,·,·
O=C(c1ccccc1)c1cccc[n+]1[O-],?,·,0.2%,-28.1%,-9.9%,·,2.5%,6.1%
O=C(c1ccc(Cl)cc1)C1CCCN(Cc2ccon2)C1 (stereo not given),-1.6%,·,·,·,-12.9%,·,3.7%,-6.0%
CCC1=NN(C(=O)Cc2ccc(OC)cc2)C(O)(C(F)(F)F)C1 (stereo not given),-4.6%,-2.5%,0.8%,-0.7%,·,-3.8%,-12.0%,-3.6%
COc1ccc(C)cc1S(=O)(=O)Nc1ccc2c(c1)OCCO2,4.0%,·,·,·,85.8%[activator],·,12.3%,-1.4%

# Whole records, quoted from the list. Order of screens: SARS PLpro yeast | Cruzain Triton | Marburg entry inh | LASV entry inh | StopGo reporter | Cruzain inh noDet | NS1 inh | RE007 growth inh
# Profile of COc1ccc(C)cc1S(=O)(=O)Nc1ccc2c(c1)OCCO2 → 4.0% | · | · | · | 85.8%[activator] | · | 12.3% | -1.4%
# Profile of CCOC(=O)C1(CCc2ccccc2)CCN(C(=O)CCn2cnnn2)CC1 → -2.2% | · | 3.1%[46.1 µM] | 30.6% | 27.9% | · | -1.1% | 4.4%

# The list goes on:
SMILES,SARS PLpro yeast,Cruzain Triton,Marburg entry inh,LASV entry inh,StopGo reporter,Cruzain inh noDet,NS1 inh,RE007 growth inh
O=C(/C=C1\C(=O)Nc2ccccc21)/C=C1\C(=O)Nc2ccccc21,-4.1%,·,·,·,?,·,0.2%,-6.3%
Cc1ccc2[nH]c(=O)c(C3C(C#N)=C(N)Oc4c3ccc3cccnc43)cc2c1 (stereo not given),12.6µM*,-8.1%,?,?,?,-15.4%,-59.4%,10.0%
CS(=O)(=O)N(CC(=O)O)c1ccc(Oc2ccccc2)cc1,-1.9%,-0.8%,14.6%,-20.1%[14.3 µM],-3.2%,-6.4%,2.4%,-6.8%
O=C(Nc1ccccc1Cl)c1ccc(=O)[nH]n1,0.9%,·,·,·,6.5%,·,2.0%,0.2%
CC(=O)Nc1ccc(OCC(O)Cn2c(C)nc3ccccc32)cc1 (stereo not given),3.5%,2.9%,-26.1%[46.1 µM],-8.4%,-24.4%,-0.8%,0.2%,-10.6%
CCN(CC(=O)Nc1ccc2c(c1)CCC2)Cc1nc2ccccc2c(=O)[nH]1,8.5%,-4.0%,?,?,-14.8%,-20.0%,-26.1%,2.1%
COc1ccc(NC(=O)CCn2c(=S)[nH]c3ccccc3c2=O)cc1OC,0.6%,·,·,·,-16.5%,·,7.0%,-3.8%
CC(C)C(NC(=O)c1c(F)cccc1F)C(=O)NCc1ccncc1 (stereo not given),-1.7%,·,?,-22.2%,-19.1%,·,·,-11.8%
COc1ccc(NC(=O)N2CCCC(c3nc(-c4ccc(OC)cc4)no3)C2)cc1 (stereo not given),-2.1%,·,?,?,-18.2%,·,-12.7%,3.0%
Cc1ccc(C(=O)NC2CCCCCC2)o1,-2.7%,1.0%,-4.4%,-11.2%,52.0%[activator],4.5%,-0.6%,-4.0%
Cc1ccc(CNC(=O)CNC(=S)N(Cc2ccccc2)Cc2ccccc2F)cc1,-6.6%,·,?,?,8.3%,·,-8.2%,-3.9%
Cc1cc(C)c(C(=O)Cn2cnc3cc([N+](=O)[O-])ccc3c2=O)cc1C,-1.2%,·,-17.1%,24.3%,-19.5%,·,2.0%,23.2%
COc1ccc(C(=O)N2CCN(C(=O)COc3ccc(C)cc3)CC2)cc1OC,·,-1.5%,·,15.3%[46.1 µM],8.6%,5.2%,·,·
COc1cc(OC)c(NC(=O)c2cccc(F)c2)cc1Cl,-30.0%,-4.7%,9.1%,?,6.0%,8.1%,-0.5%,3.0%
COc1cccc(CN(C)Cc2cc(=O)oc3cc(O)c(Cl)cc23)c1,-0.1%,·,·,·,-19.9%,·,-6.3%,5.8%
C=CCn1c(COc2ccccc2F)nnc1SCC(=O)Nc1cc2oc3ccccc3c2cc1OC,5.1%,-2.0%,?,?,-14.3%,-24.2%,23.8%,1.8%
N#Cc1cc2c(ccc3ccccc32)oc1=O,-2.4%,·,0.8%[46.1 µM],-22.2%,-6.3%,·,·,-9.3%
COc1cc(Cl)ccc1OCc1cc(C(=O)N(C)CC2CCCCO2)no1 (stereo not given),-6.5%,·,·,·,10.2%,·,-10.9%,14.7%
CCc1ccc(NC(=O)N(CCCN2CCOCC2)C(C)c2cc3cccc(OC)c3o2)cc1 (stereo not given),-30.3%,2.9%,?,?,-24.9%,10.8%,-13.3%,7.1%
COC(=O)c1ccc2[nH]cc(CCO)c2c1,8.2%,·,·,·,0.0%,·,-10.4%,1.2%
O=C(NCCc1csc(-c2ccc(F)cc2)n1)c1ccco1,·,-3.1%,·,-17.3%[46.1 µM],-29.5%,-1.8%,·,·
O=C(CSc1nnc(-c2ccco2)o1)NC(=O)Cc1ccccc1,1.4%,-0.3%,-0.4%[46.1 µM],2.0%,14.9%,-4.9%,-9.9%,-4.4%
Cc1ccc(OCC(=O)Nc2ccc(S(=O)(=O)Nc3ccccn3)cc2)c(C)c1,-8.4%,-6.1%,-27.8%,-4.7%,-7.7%,-9.8%,2.6%,-17.0%
Cc1nn(CCc2n[nH]c(=S)n2C)c(C)c1Br,2.9%,1.6%,5.1%,-25.7%[14.3 µM],21.4%,-0.5%,0.7%,12.7%
N=c1c(C(=O)NC2CCCCC2)cc2c(=O)n3ccccc3nc2n1CC1CCCO1 (stereo not given),-0.2%,·,?,4.2%,18.8%,·,2.3%,13.9%

# High-throughput results from PubChem BioAssay.
